Assay outcomes: PubChem BioAssay, several laboratories
GALR2 ag: GALR2 receptor agonists, primary screen, cell-based | 0.48% of 140,000 active | GALR2-expressing cells, agonist activation read-out | AID 803, 2007 | activation, %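 (tested at 5 µM)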 | Galanin receptor type 2 (Homo sapiens), O43603;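 active = above mean plus 3 SD of all compounds, about 5% in these data, not always enough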;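 note: 0% = vehicle buffer wells and 100% = reference agonist at full effect; tested in CHO reporter cells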
RGS16-Gao: modulators of RGS16 binding to Galphao, primary screen, biochemical, human proteins, multiplexed bead flow cytometry | bead-based flow cytometry RGS16-Galphao binding, fluorescence; actives lie on both sides | binding response (% of control), % at 10 µM | 0.38% of 220,000 active | AID 1441, 2008;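 active = below 25% or above 175%, edge rows of some plates excepted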;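 note: Galphao activated by GDP with aluminum fluoride before binding; 100% = wells without compound and 0% = beads without RGS; some results beyond the cut were filed as inactive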
HSV augment: enhancers of HSV replication in host cells, fold increase, host cell viability. HSV replication augmentation in cells. maximum fold increase. 0.005% of 220,000 active. AID 1956, 2009;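 active = peak rise of 1.5-fold or more in the series; inconclusive = self-fluorescent or not available for retest; tested in PC3 cells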;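 note: first round at 10 µM; read as green reporter fluorescence; hits show the peak of a series up to 25 µM; 1 = signal of infected wells without compound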
PKD1 kinase inh: inhibitors of human PKD1 kinase, biochemical, fluorescence polarization; AID 797, 2007; 0.056% of 200,000 active; PKD1 kinase fluorescence polarization assay; Serine/threonine-protein kinase D1 (Homo sapiens), Q15139; inhibition, %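 (about 10 µM by stock and volumes)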;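 active = inhibition of 50% or more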;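 note: controls were vehicle for no effect and a reference inhibitor for full effect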
Target sequence (Q15139 whole entry, looked up): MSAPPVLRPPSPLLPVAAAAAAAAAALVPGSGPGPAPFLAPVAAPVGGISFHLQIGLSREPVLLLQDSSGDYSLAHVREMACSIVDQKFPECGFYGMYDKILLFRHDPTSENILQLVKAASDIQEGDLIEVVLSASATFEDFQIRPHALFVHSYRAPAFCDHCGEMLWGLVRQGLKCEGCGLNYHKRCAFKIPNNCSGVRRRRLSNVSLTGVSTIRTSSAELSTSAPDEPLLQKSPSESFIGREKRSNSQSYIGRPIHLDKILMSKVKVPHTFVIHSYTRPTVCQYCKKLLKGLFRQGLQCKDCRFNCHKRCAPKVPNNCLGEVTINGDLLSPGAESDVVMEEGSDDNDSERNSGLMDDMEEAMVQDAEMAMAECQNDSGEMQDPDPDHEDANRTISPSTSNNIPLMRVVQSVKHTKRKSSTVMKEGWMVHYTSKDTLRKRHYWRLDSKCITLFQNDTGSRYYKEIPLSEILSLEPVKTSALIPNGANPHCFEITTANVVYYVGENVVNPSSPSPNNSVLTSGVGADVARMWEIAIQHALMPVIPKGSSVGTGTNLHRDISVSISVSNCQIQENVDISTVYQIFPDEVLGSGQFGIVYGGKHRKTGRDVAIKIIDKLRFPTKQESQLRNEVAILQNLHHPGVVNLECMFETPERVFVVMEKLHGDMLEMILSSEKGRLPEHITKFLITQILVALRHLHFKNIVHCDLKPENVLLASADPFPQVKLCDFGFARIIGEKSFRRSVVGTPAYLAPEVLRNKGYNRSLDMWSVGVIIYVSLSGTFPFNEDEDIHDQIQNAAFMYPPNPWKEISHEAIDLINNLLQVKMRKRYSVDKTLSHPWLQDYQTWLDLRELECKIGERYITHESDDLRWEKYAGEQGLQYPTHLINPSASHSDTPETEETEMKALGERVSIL
INS promoter inh: inhibitors of insulin promoter-driven GFP, primary screen, imaging, TRM-6 cells (human fetal islet line), eGFP reporter, cell count | reporter expression induced with tamoxifen | inhibition, % at 2 µM | 0.9% of 130,000 active;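 active = inhibition above the mean plus 3 SD, with well images judged a real hit on visual review, cut at about 60% in these data, passing the limit was not always enough; inconclusive = inhibition over the cutoff but images rejected on review; inactive = inhibition not above the cutoff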
INS promoter inh cell count: further read-out of INS promoter inh, marked with its call; normalized cell count, %; measured here: cell count, toxicity; reference of the scale not given here;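 cells exposed to compound for 48 h; stained nuclei by imaging scaled within each plate; lower means fewer cells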
HSV augment primary fold: recorded beside HSV augment, whose call it bears; fold increase; compound at 10 µM; measured here: primary screen fold increase 10 uM; tested in PC3 cells;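 GFP signal in the first replicate; 1 = infected wells without compound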
Numbers without * were called inactive; i = inactive; ? = inconclusive; · = not tested or not shown.

SMILES | GALR2 ag | RGS16-Gao | HSV augment | HSV augment primary fold | PKD1 kinase inh | INS promoter inh | INS promoter inh cell count
CC(=O)N1CSCC1C(=O)N1CCN(c2ccc(N3CCOCC3)nn2)CC1 (centres undefined) | -0.5 | 118 | i | 0.97 | -5 | · | ·
CC(C)CCNC(=O)NC(=O)COC(=O)/C=C/c1cc(Br)ccc1F | · | 102 | i | 0.88 | -7 | · | ·
Cc1cc(O)c(C(C)C)cc1NC(=O)c1cccc(Cl)c1 | -1.2 | 106 | i | 1.4 | 2 | -19 | 123
CSCCC(NC(N)=O)C(=O)NCc1ccccc1Cl (centres undefined) | -1.8 | -699* | i | 1.1 | -10 | 0 | 92
CC(Nc1cc(N2CCN(S(=O)(=O)N(C)C)CC2)ccc1[N+](=O)[O-])c1ccccc1 (centres undefined) | · | 102 | i | 0.78 | -5 | · | ·
CCOC(=O)C1(C)NC(c2ccco2)C2C(=O)N(c3ccc(C)cc3)C(=O)C21 (centres undefined) | -2.2 | 101 | i | 1.1 | -8 | 13 | 179
CCCCC(CC)C(=O)Nc1cccc(SC)c1 (centres undefined) | · | 107 | i | 1 | -12 | · | ·
C=CCN1C(=O)/C(=C\c2ccc(OC(=O)c3ccco3)c(OC)c2)SC1=S | · | 102 | ? | · | -8 | -111 | 133
CCN1CCCC1CNC(=O)Cn1cc2c(n1)CCC(C)C2 (centres undefined) | -0.5 | 74 | i | 0.77 | -23 | · | ·
O=C(NCCSc1c[nH]c2ccccc12)c1ccco1 | -2.4 | 106 | i | 1 | -2 | · | ·
O=C(O)c1ccc2nc(CO)[nH]c2c1 | -1.1 | 97 | i | 0.98 | -5 | -2 | 91
O=C(c1cc2n(n1)C(C(F)(F)F)CC(c1ccco1)N2)N1CCc2ccccc2C1 (centres undefined) | -3.2 | 112 | · | · | -7 | 61 | 137
CC(=O)c1cccc(NC(=O)/C(=C\c2cccnc2)NC(=O)c2ccco2)c1 | · | 103 | i | 0.89 | -2 | · | ·
N/C(=N\OC(=O)c1ccco1)c1cccc(Br)c1 | -3.2 | 96 | i | 0.9 | -1 | -13 | 80
CCOc1cc(-c2nc(C)c(C(C)=O)n2O)ccc1OCC(=O)Nc1ccc(F)cc1 | · | 114 | i | 0.98 | -4 | -7 | 113
CC1=CC(C)(C)[N+](C)(C)c2ccc(C)cc21 | · | 144 | i | 0.81 | 1 | · | ·
Cc1ccc(-c2nnc(CCC(=O)NCc3csc(C)n3)o2)s1 | · | 103 | i | 0.98 | · | · | ·
COC(=O)Cc1cc(=O)n2[nH]c(C(F)(F)F)nc2n1 | 0.3 | 105 | i | 0.97 | 1 | 38 | 53
O=C(CN(c1cccc([N+](=O)[O-])c1)S(=O)(=O)c1ccccc1)N(Cc1ccccc1)Cc1ccccc1 | -1.3 | 107 | i | 1.1 | 4 | -60 | 86
C=CCNc1c2c(nc3nnnn13)CCCC2 | · | 116 | i | 1 | 5 | 14 | 78
COC(=O)Nc1nc2ccc(C(=O)c3ccc(F)cc3)cc2[nH]1 | · | 99 | i | 0.48 | · | · | ·
Cc1ccc(C(=O)Nc2ccc(-c3csc(C)n3)cc2)cc1 | · | 101 | i | 0.94 | -5 | · | ·
CCOc1ccc(NC(=O)CNC(=O)COc2ccccc2)cc1 | -0.2 | 112 | i | 1.1 | -3 | · | ·
Cc1ccc(NC(=O)N2CCCc3ccccc32)cc1 | · | 108 | i | 0.98 | -2 | · | ·
Cc1ccc(OCCCn2cc(C#N)c3ccccc32)cc1 | -1.7 | 118 | i | 0.8 | 2 | 33 | 138
O=C(CCCC(=O)N(c1ccc2c(c1)OCCO2)C(C(=O)NC1CCCCC1)c1ccc(F)cc1)Nc1ccccn1 (centres undefined) | -0.7 | 103 | i | 1.1 | -15 | -97 | 144
Cc1occc1-c1nnc(SCC(=O)N2CCc3ccccc32)o1 | -1.9 | 104 | i | 1.1 | -2 | -228 | 46
COc1cccc2c(=O)cc(C)n(CC(=O)Nc3ccccc3C)c12 | -0.2 | 98 | i | 0.96 | 1 | 3 | 108
CCOc1ncccc1C(=O)NCc1ccc(C)cc1 | 0.9 | 101 | i | 0.99 | 2 | · | ·
O=C(CSc1nc2ccccc2c(=O)n1-c1ccc(F)cc1)NCc1ccco1 | -1.3 | 94 | i | 1 | -5 | 5 | 121
COCCn1nnnc1SCC(=O)c1ccc(F)cc1 | -1.9 | 187 | i | 0.91 | 1 | 49 | 132
CCC(=O)Nc1c(C(=O)N2CCN(c3ccccn3)CC2)cnn1-c1ccc(C)cc1 | 0.5 | 117 | i | 1 | -7 | -29 | 150
Cc1ccccc1Cn1nc(C)c(NC(=O)c2nc3n(n2)C(C(F)F)CC(C)N3)c1C (centres undefined) | 1.1 | 141 | i | 0.89 | -5 | 55 | 46
CC(C)c1c(Cl)c(O)c(-c2ccccc2)c(=O)n1-c1ccc(F)cc1 | -1.9 | 97 | i | 0.95 | -11 | · | ·
CC(CNS(=O)(=O)c1cc(Cl)ccc1Cl)CN(C)C (centres undefined) | -1.2 | 106 | i | 0.78 | -7 | 20 | 109
CN(C)CCCN(C(=O)c1sc2ccccc2c1Cl)c1nc2ccc(F)cc2s1 | 1.7 | 109 | i | 0.95 | 1 | 11 | 77
CN=C(Nc1ccc2c(c1)OCO2)SC1CC(=O)N(c2ccccc2)C1=O (centres undefined) | -0.4 | 102 | i | 0.82 | -3 | -15 | 62
COc1ccccc1N(CC(=O)NCC(C)C)S(=O)(=O)c1cccs1 | -1.4 | 107 | i | 1 | 4 | 6 | 107
CC(=O)NC1(c2ccccc2)CCN(c2cc(C)nc(-c3ccccc3)n2)CC1 | · | 103 | i | 0.93 | 5 | 38 | 87
O=C(N/N=C/c1ccc(Br)o1)c1ccc2c(c1)OCCO2 | -0.9 | 103 | i | 0.82 | 32 | 43 | 196

Single records (already shown). Order of screens: GALR2 ag, RGS16-Gao, HSV augment, HSV augment primary fold, PKD1 kinase inh, INS promoter inh, INS promoter inh cell count
Record of COC(=O)Nc1nc2ccc(C(=O)c3ccc(F)cc3)cc2[nH]1 = ·, 99, i, 0.48, ·, ·, ·
Record of COc1cccc2c(=O)cc(C)n(CC(=O)Nc3ccccc3C)c12 = -0.2, 98, i, 0.96, 1, 3, 108
Record of CCC(=O)Nc1c(C(=O)N2CCN(c3ccccn3)CC2)cnn1-c1ccc(C)cc1 = 0.5, 117, i, 1, -7, -29, 150
Record of CCOc1ccc(NC(=O)CNC(=O)COc2ccccc2)cc1 = -0.2, 112, i, 1.1, -3, ·, ·

Next section.
SMILES | GALR2 ag | RGS16-Gao | HSV augment | HSV augment primary fold | PKD1 kinase inh | INS promoter inh | INS promoter inh cell count
CCNC(=S)NNC(=O)c1csc(CC)c1 | -2.5 | 95 | i | 0.87 | 2 | -190 | 86
CCOC(=O)C(NCc1ccc(OC)cc1)(NC(C)=O)C(F)(F)F (centres undefined) | -1.9 | 96 | i | 0.99 | -3 | -50 | 86
COc1ccc(S(=O)(=O)N2CCCC(C(=O)Nc3cccnc3)C2)cc1Cl (centres undefined) | -1.3 | 107 | i | 1.1 | 2 | 8 | 138
O=C(NCCCN1CCN(Cc2ccccc2)CC1)C1CCN(S(=O)(=O)N2CCC3(CC2)OCCO3)CC1 | · | 92 | i | 0.96 | -10 | · | ·
COc1ccc(C(=O)/C=C/N(C)C)cc1OC | -0.4 | 101 | i | 0.85 | -3 | 18 | 48
CC(C)c1ccc(C2C3CSCC=C3C(C#N)=C(N)C2(C#N)C#N)cc1 (centres undefined) | 0.2 | 107 | ? | · | 0 | -3 | 142
Cn1c(=O)c2c(nc3n2CCS3)n(C)c1=O | · | 133 | i | 0.88 | -1 | 15 | 97
CCOC(=O)C1=C(C)NC(=O)NC1c1ccc(OC)c(Cl)c1 (centres undefined) | -1.1 | 91 | i | 1 | -4 | -6 | 110
COc1cccc(-n2c(=O)[nH]cc(C(=O)Nc3ccc(NC(C)=O)cc3)c2=O)c1 | -1.8 | 104 | i | 0.98 | 1 | · | ·
O=C(NN1C(=O)C2C3C=CC(O3)C2C1=O)c1cccc(O)c1 (centres undefined) | 1.1 | 98 | i | 1.2 | 3 | · | ·
CCOC(=O)CC(=O)CSc1nc2cc(C)ccc2cc1C | -0.8 | 106 | i | 0.99 | -7 | -8 | 135
CC(CN(C)Cc1ccccc1)OC(=O)c1ccc(F)cc1 (centres undefined) | 1.1 | 99 | i | 1 | -5 | · | ·
COc1ccc2ccccc2c1/C=N/NC(=O)c1sc(N)c(C#N)c1C | 12* | 26 | i | 0.77 | 19 | 0 | 92
N=c1c2c(ncn1CCCO)Oc1ccc3ccccc3c1C2c1ccccc1 (centres undefined) | · | 102 | i | 0.76 | · | · | ·
CC1CC(C)CN(CCCNC(=O)c2cn(C)c3ccc(S(=O)(=O)N4CCCC4)cc3c2=O)C1 (centres undefined) | · | 100 | i | 0.94 | · | · | ·
Cc1ccc2[nH]c(=O)c(Cc3ccccc3)c(O)c2c1 | · | 102 | i | 0.85 | -6 | · | ·
COC(=O)c1cc(NC(=O)Cc2ccc(OC)cc2)cc(C(=O)OC)c1 | -0.8 | 101 | i | 1 | -1 | -14 | 91
Cc1ccc(Nc2nc(NCCCN3CCOCC3)nc(N)c2[N+](=O)[O-])cc1 | -0.3 | 147 | i | 0.97 | 11 | 6 | 63
CC[n+]1ccc(C)c2cc(S(=O)C(F)(F)F)ccc21 (centres undefined) | 0.5 | 96 | i | 0.96 | -8 | · | ·
O=C(CN(Cc1cccs1)C(=O)CNS(=O)(=O)c1ccccc1)NC1CCCC1 | · | 101 | i | 0.96 | -6 | · | ·

Two entries picked at random from the list so far, as already listed:
SMILES | GALR2 ag | RGS16-Gao | HSV augment | HSV augment primary fold | PKD1 kinase inh | INS promoter inh | INS promoter inh cell count
O=C(CN(Cc1cccs1)C(=O)CNS(=O)(=O)c1ccccc1)NC1CCCC1 | · | 101 | i | 0.96 | -6 | · | ·
O=C(NN1C(=O)C2C3C=CC(O3)C2C1=O)c1cccc(O)c1 (centres undefined) | 1.1 | 98 | i | 1.2 | 3 | · | ·

Next part.
SMILES | GALR2 ag | RGS16-Gao | HSV augment | HSV augment primary fold | PKD1 kinase inh | INS promoter inh | INS promoter inh cell count
CCOc1ccc(CNC(=O)CCCc2cn(C)c3ccccc23)cc1OC | -0.1 | 105 | · | · | -5 | -40 | 139
CCC(C)NC(=O)c1ccc(CS(=O)(=O)Cc2ccc(Cl)cc2)o1 (centres undefined) | -2.4 | 99 | i | 1 | -3 | · | ·
Nc1nc(N2CCOCC2)nc(N(c2ccccc2)c2ccccc2)n1 | -3.2 | 100 | i | 0.99 | -9 | · | ·
O=C(OCc1ccccc1)N1CCOCCOCCN(C(=O)OCc2ccccc2)CCOCCOCC1 | 1.0 | 100 | i | 1.2 | -11 | 0 | 35
COc1ccc(/C=C2\N=C(c3ccccc3)NNC2=O)cc1 | · | 109 | i | 0.88 | · | · | ·
CC1(C)CC(=O)C(C(=O)CCCCC(=O)C2C(=O)CC(C)(C)CC2=O)C(=O)C1 | -1.9 | 111 | · | · | -11 | -32 | 134
CCCCNC1=NCCS1 | · | 92 | i | 0.97 | -11 | -33 | 143
CN(C)c1ccc(C(=S)N2CCN(c3ccccc3)CC2)cc1 | -1.1 | 103 | i | 0.97 | 4 | · | ·
O=C(CSc1ncn(-c2ccccc2)n1)c1cccs1 | -1.3 | 102 | i | 1 | -2 | 60 | 66
COc1ccc(N2C(=O)NC(NC(=O)c3cccnc3)(C(F)(F)F)C2=O)cc1 (centres undefined) | · | 104 | i | 0.97 | -9 | · | ·
CC(C)OC(=O)C(CC(=O)O)NCc1ccccc1 (centres undefined) | 0.1 | 113 | i | 0.95 | -12 | · | ·
CCN(CC)C(=O)c1cc2c(=O)n3cccc(C)c3nc2n1C | 1.0 | 105 | i | 1.4 | -4 | · | ·
COc1cc(C)c(S(=O)(=O)N2CCN(C)CC2)cc1C | -1.4 | 85 | i | 0.98 | 0 | 17 | 133
CCOC(=O)c1c(C)[nH]c(N=Nc2ccc(OC)cc2)c1C | · | 101 | i | 0.98 | · | · | ·
CCOc1cc(C2/C(=C(/O)c3ccc(OC)cc3)C(=O)C(=O)N2CC2CCCO2)ccc1O (centres undefined) | · | 102 | i | 1 | · | · | ·
CC(C)=CCC/C(C)=C/C=N/NC(=O)c1ccc([N+](=O)[O-])cc1 | 0.0 | 100 | i | 0.96 | -11 | 12 | 74

RGS16-Gao, what is marked active above.
Molecule,GALR2 ag,RGS16-Gao,HSV augment primary fold,PKD1 kinase inh
CSCCC(NC(N)=O)C(=O)NCc1ccccc1Cl (centres undefined),-1.8,-699*,1.1,-10
